Screening results from PubChem.
LANA-H2B inh = blocks KSHV LANA binding to histone H2A/H2B. cell-free LANA-H2A/H2B peptide, fluorescence polarization. Q9QR71. hit rate 0.6% among 320,000. inhibition, % (no concentration beside the values); in the data active = inhibition mostly above about 10%, no sharp cut-off; inactive = mostly below about 6.7%;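 also: stock transfer was 7.5 nL into about 10 µL; 0% = median of vehicle wells and 100% = median of positive control wells; one replicate is shown; the record names a cut of 25% in any replicate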
RanGTP-Imp inh = disruptors of Ran-importin-beta complex formation – biochemical, FRET, CFP-Ran, YFP-importin-beta, homogeneous, primary screen; inhibition, % (concentration not given with the values); hit rate 1.1% among 300,000; cell-free CFP-Ran/YFP-importin-beta FRET ratio;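 active = most replicates above 15%; inconclusive = exactly half above 15%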;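 also: 0% = DMSO wells and 100% = Ran loaded with GDP instead of GTP; wells of about 40 µL received 100 nL stock; the first replicate is given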
Vif TR-FRET = inhibitors of Vif binding to APOBEC3G peptide, primary screen, biochemical, TR-FRET, GST-Vif 1-94, biotin-A3G peptide, dose response retest (AID 1117319). TR-FRET GST-Vif / biotin-A3G peptide binding; higher % means a stronger effect; test concentration not given here; strong numbers were not always called active. hit rate 0.57% among 260,000. inhibition, %; hits with a dose series show IC50 in µM;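 active = above the screen mean plus three standard deviations and confirmed in dose response; inconclusive = results disagree or hit not tested in dose response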;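 also: Vif residues 1-94 fused to GST binding biotinylated APOBEC3G peptide 110-148; 0% = full assay without inhibitor and 100% = GST in place of GST-Vif; retest series ran down from 100 µM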
B2AR ag = activates human beta-2 adrenergic receptor causing internalization; response, % (test concentration not listed); P07550; AID 504454; hit rate 0.43% among 340,000; Am2.2-beta2AR cells, FAP receptor internalization, flow cytometry; reference of the scale not given here;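 active = response above a set limit, near 3 SD of response in nonfluorescent compounds, cut at about 42% in these data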;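 also: stock transfer was 100 nL into about 11 µL; a reference agonist was the positive control; negative values mostly stem from fluorescent compounds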
Target sequence (P07550 whole entry, looked up): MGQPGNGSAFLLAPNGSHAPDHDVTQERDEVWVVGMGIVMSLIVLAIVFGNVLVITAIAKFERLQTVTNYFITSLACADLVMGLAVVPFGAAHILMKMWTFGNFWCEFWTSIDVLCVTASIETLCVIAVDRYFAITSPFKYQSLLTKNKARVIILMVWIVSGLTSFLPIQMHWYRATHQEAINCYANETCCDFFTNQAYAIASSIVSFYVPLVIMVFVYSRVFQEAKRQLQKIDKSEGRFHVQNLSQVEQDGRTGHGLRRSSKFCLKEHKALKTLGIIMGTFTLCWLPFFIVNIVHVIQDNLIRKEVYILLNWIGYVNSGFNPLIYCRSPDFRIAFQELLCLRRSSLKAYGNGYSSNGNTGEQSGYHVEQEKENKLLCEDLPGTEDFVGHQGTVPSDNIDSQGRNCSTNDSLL
HNF4A DNA FP = change in binding of human HNF4 alpha to DNA; P41235; HNF4a-FITC DNA binding, fluorescence polarization, 1 h; activity change, % at 10 µM; hit rate 0.3% among 360,000; AID 1224865; in the data active = activity change above about 30%, passing the limit was not always enough;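 also: controls were the assay level and a saturating level of protein; the project sought stronger binding though the title names inhibitors; some compounds called inactive have numbers as strong as hits; positive values seem to mean higher polarization but the record does not say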
Calb FLC = C. albicans growth modulation with fluconazole; growth inhibition, % (test concentration not listed); AID 1979; C. albicans CaCi-2 (fluconazole-resistant clinical isolate) + fluconazole, Alamar Blue growth, 48 h; hit rate 0.57% among 300,000;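 active = most replicates above 75%; inconclusive = exactly half above 75%; inactive = most below 75%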;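 also: all wells also contain fluconazole at 8 µg/ml as a sub-toxic cotreatment; 0% = median of DMSO wells and 100% = median of geldanamycin control wells; wells of about 8 µL received 7.5 nL stock; the first replicate is given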
ALR H2O2 inh = inhibitors of human sulfhydryl oxidase ALR; P55789; purified ALR, DTT oxidation, H2O2 HRP-luminol luminescence; inhibition, % (test concentration not listed); hit rate 3.8% among 290,000; AID 485317;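 active = mean and each replicate at 75% or more; inconclusive = only one of the two met; inactive = neither met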;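 also: stock transfer was 7.5 nL into about 7.5 µL; 0% = neutral wells and 100% = wells with inactivated enzyme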
Target sequence (P55789 whole entry, looked up): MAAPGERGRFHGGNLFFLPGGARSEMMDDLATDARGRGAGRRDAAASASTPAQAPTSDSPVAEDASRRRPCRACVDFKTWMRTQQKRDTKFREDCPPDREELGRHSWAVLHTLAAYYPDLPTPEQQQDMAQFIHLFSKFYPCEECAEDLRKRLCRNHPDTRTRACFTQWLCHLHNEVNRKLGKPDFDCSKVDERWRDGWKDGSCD
Starred values were filed as active, the others as inactive; ? = inconclusive; . = not tested or not shown.

item	compound	LANA-H2B inh	RanGTP-Imp inh	Vif TR-FRET	B2AR ag	HNF4A DNA FP	Calb FLC	ALR H2O2 inh
1	O=C1c2ccccc2C(=O)N1CC(O)COc1ccccc1Cl (stereo not given)	2.3	-1.8	.	-7	-1.9	-2	-7
2	COc1ccc(C)cc1NC(=O)C1C2C=CC(C2)C1C(=O)O (stereo not given)	0.6	-1.0	?	6	0.4	0	.
3	Cc1c2cnn(CC(=O)NCc3ccccn3)c(=O)c2c(C)n1Cc1ccccc1	-3.6	1.1	.	-11	3.2	-2	38
4	CNC(=O)c1cc2cccc(OC)c2oc1=O	0.5	-0.9	18%	-2	-0.2	-2	5
5	COc1ccc(CC(=O)N(Cc2ccccc2)c2ccc(C)cc2)cc1OC	2.2	-1.7	.	-7	2.4	17	12
6	Cn1cc(/C=C(\NC(=O)c2ccccc2Cl)C(=O)NCCCn2ccnc2)c2ccccc21	1.2	2.5	-1%	3	6.6	-5	8
7	O=C(CN1CCOC1=O)N1CCCC(N2CCN(c3cccc(C(F)(F)F)c3)CC2)C1 (stereo not given)	-2.0	-1.9	.	4	-2.7	-2	-3
8	CC(C)[C@H](NC(=O)N1CC(=O)Nc2ccccc21)C(=O)N1CCC[C@H]1C(=O)O	3.4	-1.4	.	4	4.7	2	.
9	C=CCC1(NCc2ccco2)CCN(CC)CC1	0.6	7.7	-1%	1	-0.4	-11	-16
10	c1ccc(-c2nc(-c3ccco3)cs2)nc1	-2.5	3.5	16%	-1	2.3	2	98*
11	Cc1ccc(S(=O)(=O)N/N=C/c2ccc(O)cc2O)cc1[N+](=O)[O-]	-5.3	2.8	?	17	-0.6	-5	62
12	CCN1CCN(CCCN(Cc2ccco2)C(=S)Nc2ccc(C)c(Cl)c2)CC1	-3.5	21	8%	8	-0.8	-12	-13
13	O=C1CC(c2ccccc2)CC(O)=C1C=Nc1ccccc1 (stereo not given)	8.5	0.8	-5%	-9	0.2	-21	-1
14	Cc1cccc(CCNC(=O)CNS(=O)(=O)c2ccc3nc(C)sc3c2)c1	4.0	-0.9	-2%	1	2.3	2	-16
15	N#CCSc1nnc(C2CCCCC2)n1Cc1ccccc1	-1.5	2.5	-1%	2	3.1	52	.
16	Cc1cc(C(=O)OCC(=O)NC2CCCCC2C)c2ccccc2n1 (stereo not given)	3.7	.	.	5	0.7	.	-26
17	COC(=O)c1ccc(NC(=O)CN(c2ccc(OC)cc2)S(C)(=O)=O)cc1	1.4	-2.2	1%	-1	-0.1	34	-16
18	COc1ccc(C(=O)N2CCN(c3ccc(NC(=O)Cc4ccccc4)cc3)CC2)cc1	2.3	4.3	.	0	4.4	21	-1
19	Fc1ccc(F)c(C2=NNC(=Nc3ccccc3F)SC2)c1	1.8	4.5	.	5	-0.2	1	0
20	CCOc1ccc(NC(=O)C2CC(=O)N(C(C)C)C2)cc1 (stereo not given)	7.9	1.6	-2%	-14	-0.2	?	-17
21	N#Cc1c(N2CCOCC2)nc(N2CCCCC2)c2c1CCN(C1CCCCC1)C2	-3.7	14	2%	.	.	6	8
22	O=C(O)COc1ccccc1C=NNC(=O)c1ccc(NS(=O)(=O)c2cccs2)cc1	-0.6	.	.	-5	-0.8	.	5
23	O=C(CCC1CCCC1)Nc1cccc(Cc2ccncc2)c1	1.2	-1.0	-3%	-1	0.4	5	-2
24	Cc1nc(Nc2ccc(F)cc2)[nH]c(=O)c1CCC(C)C	1.5	-2.9	16%	16	1.3	32	.
25	O=[N+]([O-])c1ccc(Cl)c(S(=O)(=O)Nc2ccc(-c3ccc(N4CCCC4)nn3)cc2)c1	1.2	1.4	6%	-1	-7.2	6	9
26	CCOC(=O)c1c(NC(=O)COc2ncnc3ccccc23)sc(C)c1C	-0.7	2.9	-18%	-5	3.4	28	3
27	COc1ccc([C@@H]2[C@@H]3C(=O)N(C(C)(C)C)C(=O)[C@@H]3[C@]3(C)C(=O)N(c4cccc(Cl)c4)C(=O)N23)cc1	-1.2	0.5	.	-6	0.7	-13	16
28	Cc1ccc(C(C)C)c(OCC(=O)NN=C2CCCC(=O)C2)c1	-1.0	.	1%	5	0.7	.	-2
29	Cc1ccc(S(=O)(=O)N2CCc3ccccc3C2)cc1	3.9	?	-5%	-1	-1.4	5	-29
30	O=C(NCc1ccccc1)c1ccc(CN2CCOCC2)cc1	8.0	-0.4	-2%	4	-4.2	-1	-6
31	Cc1cccc(NC(=O)c2cc(S(=O)(=O)N3CCCC3)cn2C)c1	8.9	-0.4	.	-3	-0.7	-3	5
32	Cc1ccc2cc(C#N)c(N3CCCN(C(=S)NCCCN(C)C)CC3)nc2c1	-4.3	19*	.	16	-1.7	9	-21
33	COC(=O)CSc1nnc(CNC(=O)c2ccc(S(=O)(=O)N3CCCCC3)cc2)n1C	10	.	-1%	0	0.7	.	.
34	CCCOc1cccc(C(=O)N(Cc2ccc(OC)c(OC)c2)C2CCS(=O)(=O)C2)c1 (stereo not given)	2.1	3.4	4%	-17	-2.8	13	1
35	COc1ccc(N2CC(C(=O)N3CCN(c4ccccc4OC)CC3)CC2=O)cc1 (stereo not given)	-0.7	-1.6	.	0	2.5	1	4
36	O=C(COc1ccccc1)NCC(c1ccco1)N1CCN(c2ccc(F)cc2)CC1 (stereo not given)	0.3	-3.4	2%	4	-1.3	-6	59
37	COc1ccc(S(=O)(=O)NCCSc2ccc(C)cc2)cc1OC	-4.9	4.1	-3%	1	-1.2	4	-4
38	CCCOC(=O)c1ccc(NC(=O)c2cnccn2)cc1	2.2	-4.5	1%	8	-1.3	-1	7
39	CC(Cc1ccccc1)=NNS(=O)(=O)c1ccc([N+](=O)[O-])cc1	.	.	-3%	-11	-4.9	.	.
40	O=C(NC(=S)Nc1ccccc1F)C1CCCCC1	-0.4	2.1	-9%	-7	4.3	-16	-3
41	Cc1ccc(NC(=O)c2ccco2)c(NC(=O)c2ccccc2C)c1	0.4	-2.5	.	-6	-3.6	9	-3
42	Cc1cc(NC(=O)Nc2cccc(C(F)(F)F)c2)n(C)n1	-3.9	-0.9	-10%	1	2.6	2	-10
43	COc1ccccc1-c1cc(C(=O)NC(C)c2ccccc2)no1 (stereo not given)	1.1	7.0	21%	-9	-0.5	-9	-9
44	C/C(=N\O)c1cc(Cl)ccc1O	5.2	4.6	-7%	0	0.5	0	-5
45	Cc1c(C(=O)NC(=S)Nc2ccccc2N2CCCC2)cccc1[N+](=O)[O-]	5.0	4.9	11%	-5	-2.1	10	5
46	O=C1C2C3C=CC(CNS(=O)(=O)c4ccccc4)(O3)C2C(=O)N1c1ccc(Cl)cc1 (stereo not given)	-7.1	-3.1	-8%	2	-0.2	36	-1
47	CCOC(=O)N1CCN(S(=O)(=O)c2ccc(C)cc2)CC1	3.6	1.9	.	-3	-0.1	-4	10
48	O=C(NNc1ccc([N+](=O)[O-])cc1)Nc1ccccc1	8.4	-6.4	.	2	-3.0	-15	.
49	CC(=O)COc1ccc2c(C)c(-c3ccccc3)c(=O)oc2c1	-3.1	-3.7	.	-7	-2.4	30	-10
50	CCCCOCCCNC(=O)C1CCCCC1	0.6	.	8%	-6	-3.4	.	-5
51	O=C(NNC(=O)c1ccccn1)c1ccc(OC(F)F)cc1	-3.3	.	.	-4	3.2	.	-5
52	COc1ccccc1OCCOc1ccc(/C=C2/C(=N)N3OC(C)=CC3=NC2=O)cc1OC	1.8	3.5	-2%	-5	1.4	1	.
53	Cc1[nH]cnc1CSCCN	0.7	5.1	-2%	1	0.2	-4	2
54	C=CCN1C(=O)/C(=C2/Sc3ccc(OC)cc3N2CC)SC1=S	12	?	-18%	12	-0.7	1	-5
55	COc1ccc(CCNC2=CC(=O)CC(C)(C)C2)cc1	-0.8	1.3	?	-3	2.2	-12	-2
56	Cc1c(Cl)cccc1NC(=O)COC(=O)c1c2c(nc3ccccc13)CCN(Cc1ccccc1)C2	-7.3	9.3	.	24	3.8	-12	.

In another format: results already given.
#45 Cc1c(C(=O)NC(=S)Nc2ccccc2N2CCCC2)cccc1[N+](=O)[O-]
- LANA-H2B inh: 5.0
- RanGTP-Imp inh: 4.9
- Vif TR-FRET: 11%
- B2AR ag: -5
- HNF4A DNA FP: -2.1
- Calb FLC: 10
- ALR H2O2 inh: 5
#46 O=C1C2C3C=CC(CNS(=O)(=O)c4ccccc4)(O3)C2C(=O)N1c1ccc(Cl)cc1 (stereo not given)
- LANA-H2B inh: -7.1
- RanGTP-Imp inh: -3.1
- Vif TR-FRET: -8%
- B2AR ag: 2
- HNF4A DNA FP: -0.2
- Calb FLC: 36
- ALR H2O2 inh: -1
#47 CCOC(=O)N1CCN(S(=O)(=O)c2ccc(C)cc2)CC1
- LANA-H2B inh: 3.6
- RanGTP-Imp inh: 1.9
- Vif TR-FRET: .
- B2AR ag: -3
- HNF4A DNA FP: -0.1
- Calb FLC: -4
- ALR H2O2 inh: 10
#48 O=C(NNc1ccc([N+](=O)[O-])cc1)Nc1ccccc1
- LANA-H2B inh: 8.4
- RanGTP-Imp inh: -6.4
- Vif TR-FRET: .
- B2AR ag: 2
- HNF4A DNA FP: -3.0
- Calb FLC: -15
- ALR H2O2 inh: .

(cont.)
item	compound	LANA-H2B inh	RanGTP-Imp inh	Vif TR-FRET	B2AR ag	HNF4A DNA FP	Calb FLC	ALR H2O2 inh
57	COCCCNc1oc(-c2ccccc2OC)nc1C#N	-0.1	5.1	12%	22	2.8	-6	20
58	CCn1nc(C(=O)OC2CCOC2=O)c2ccccc2c1=O (stereo not given)	-0.5	1.0	-1%	-5	-0.3	.	0
59	Cn1cc(Cl)cc(C(=O)Nc2ccccc2)c1=O	-9.8	-1.6	-1%	-25	-0.9	-6	2
60	CC(NC(=O)[C@H](C)NC(=O)C1CC(=O)N(c2ccc3c(c2)OCO3)C1)c1ccccc1 (stereo not given in full)	-0.7	?	0%	3	-0.1	.	2
61	Cc1ccc(S(=O)(=O)Nc2cc(=O)[nH]c(SCC(=O)Nc3ccccc3C(F)(F)F)n2)cc1	-1.7	-0.2	.	13	-0.8	25	1
62	CCC12C(=O)C(CC)(C(c3ccccc3)=C1c1ccccc1)[C@@H]1C(=O)N(c3ccccc3)C(=O)C12 (stereo not given in full)	-1.1	-4.8	-6%	3	-2.2	0	-10
63	CCN(CC)Cc1c(C(=O)N/N=C/c2ccco2)nnn1-c1nonc1N	-0.5	.	7%	-2	-1.9	71	-1
64	Cc1ccc(S(=O)(=O)CCSC(=N)N)cc1	2.8	3.6	9%	-2	3.1	-18	62
65	Cc1[nH]n(-c2ccc(F)cc2)c(=O)c1C=Nc1ccc(S(=O)(=O)N(C)C)cc1	-1.2	3.6	7%	0	0.6	19	-4
66	COc1ccc(N2CCN(C3CCCN(S(=O)(=O)c4ccc(C)cc4C)C3)CC2)cc1 (stereo not given)	4.7	-3.9	.	0	-3.3	-1	40
